# Source: PubChem BioAssay (National Center for Advancing Translational Sciences (NCATS))
# TRPML1 agonist – agonists of human TRPML1 channel | Q9GZU1 | TRPML1-expressing cells, Ca2+ dye fluorescence, FDSS; host cell line not named in the record; reference of the full effect not given here | activation, % (no concentration beside the values) | 410,000 tested, 0.12% active; in the data active = activation above about 50%; inconclusive = about 30% to 50%; inactive = below about 30%; note: 0% is about no effect; the text of the record puts the active cut at 80%
# Target sequence (Q9GZU1 whole entry, looked up): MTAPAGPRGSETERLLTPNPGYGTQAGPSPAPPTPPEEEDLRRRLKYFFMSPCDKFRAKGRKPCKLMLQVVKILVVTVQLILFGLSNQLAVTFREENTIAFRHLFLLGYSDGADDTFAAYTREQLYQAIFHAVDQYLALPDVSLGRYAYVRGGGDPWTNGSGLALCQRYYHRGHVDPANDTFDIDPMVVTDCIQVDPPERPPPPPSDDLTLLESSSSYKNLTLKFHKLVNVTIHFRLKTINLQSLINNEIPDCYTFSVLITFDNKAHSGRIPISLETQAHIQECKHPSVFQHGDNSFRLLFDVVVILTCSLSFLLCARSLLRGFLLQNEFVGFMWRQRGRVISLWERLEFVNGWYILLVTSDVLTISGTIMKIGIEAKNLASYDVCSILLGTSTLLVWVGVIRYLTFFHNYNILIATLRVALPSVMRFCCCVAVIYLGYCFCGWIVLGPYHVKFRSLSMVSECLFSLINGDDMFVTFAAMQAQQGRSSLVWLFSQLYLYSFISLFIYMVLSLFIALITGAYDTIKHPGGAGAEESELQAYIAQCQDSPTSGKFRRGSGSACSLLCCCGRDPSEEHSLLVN
#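 In this qHTS format, compounds were pin-transferred onto Ca8-dye-loaded TRPML1-DL cells induced with Tet overnight, and intracellular Ca2+ fluorescence was recorded kinetically for 110 s after a 10 s baseline. A subsequent 4uM final 54-4 (EC80) addition followed by a second 110 s read served as the antagonist phase.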
# PINK1 modulator – PINK1 expression modulation; PINK1 immunofluorescence, high-content cytometry, 24 h; Potency, µM (doses to about 76.6 µM), without a hit: at the highest dose activation (PINK1 increase), hits mostly activators; 410,000 tested, 0.2% active; AID 624263; active = well fitted activation curve with a large enough effect; inconclusive = small, poorly fitted or top-dose-only effect; inactive = flat fitted curve, though single readings scatter; cell line not stated here;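 note: potency is the fitted concentration of half-maximal effect; % of control where 0% means no effect; nearly all actives have a fitted effect of over 65% in size; a mitochondrial uncoupler was the plate control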
#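 Readout is PINK1 immunofluorescence, quantified alongside mitochondrial, cell and nuclear markers by laser-scanning microplate cytometry. Cells from a stable line were exposed to compound titrations (5 concentrations) for 24 hours, with CCCP controls.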
# TRPV1 potentiator – human TRPV1 potentiation | potentiation, % at 8.33 µM | AID 540277 | TRPV1-expressing cells, Fluo-8 calcium influx, capsaicin EC20 potentiation; host cell line not named in the record; control for the full effect not named in the record | Q8NER1 | 320,000 tested, 0.02% active; active means potentiation above 80%; inconclusive means 30% to 80%; inactive means below 30%; note: 0% is about no effect
#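 Cells expressing TRPV1 were dye-loaded with Fluo-8 and read kinetically: 10 s baseline, 3 min after compound (agonist portion), then 2 min after EC20 capsaicin (allosteric enhancer portion). Calcium-bound dye fluorescence at 480/520 nm.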
# TRPML1 blocker – human mucolipin-1 channel inhibition; Q9GZU1; TRPML1-inducible cells, Ca2+ dye fluorescence, FDSS; stronger effect = lower value; inhibition of EC80 agonist-evoked calcium signal; activity change, negative = inhibition, % (concentration not given with the values); 390,000 tested, 0.02% active; in the data active means activity change below about -50%; inconclusive means about -30% to -50%; inactive means above about -30%;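 note: stimulus is agonist 54-4 at its EC80 concentration; % is set by controls: 0 for no effect and ±100 for the full control effect; compound concentration not given in the record; the text of the record puts the active cut at -80%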
#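 Calcium fluorescence in TRPML1-DL cells induced overnight with Tet: a 110 s read after compound pin addition, then a 110 s antagonist read after challenge with 54-4 at 4 uM final (EC80).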
# ClpP mod – qHTS Assay for Activators of ClpP; ATP-dependent Clp protease proteolytic subunit (Bacillus subtilis (strain 168)), P80244; purified B. subtilis ClpP, FRET peptide cleavage, 20 min; Potency, µM (top dose mostly 57.5 µM), for the others: at the top dose activity change, negative = active; 340,000 tested, 1.9% active; AID 651965, 2013; active = well fitted falling curve with a large enough effect; inconclusive = small, poorly fitted or top-dose-only effect; inactive = no such curve, though single readings can be large or run the other way; note: potency is the fitted concentration of half-maximal effect; the source files actives as falling curves though it sought activators and does not explain the sign; nearly all actives have a fitted effect of over 65% in size; many hits overshoot -100%
# Target sequence (P80244 whole entry, looked up): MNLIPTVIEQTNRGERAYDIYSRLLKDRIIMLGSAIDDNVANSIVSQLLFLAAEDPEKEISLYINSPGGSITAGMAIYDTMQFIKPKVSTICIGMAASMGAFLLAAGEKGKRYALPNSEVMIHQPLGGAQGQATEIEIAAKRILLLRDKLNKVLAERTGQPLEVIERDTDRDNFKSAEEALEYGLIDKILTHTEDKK
#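 FRET quenching reversal measured ClpP activation: 10 microg/mL B. subtilis ClpP at pH 8 with the FRET-FV decapeptide, read at 430 nm after 320 nm excitation. The 20-min minus 0-min signal was scaled between DMSO/no-enzyme wells and ADEP (5.8 microM final).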
# Sfp PPTase inh – Sfp phosphopantetheinyl transferase inhibition. Q9F4F7. Biochemical Sfp PPTase activity, qHTS. Potency, µM, for the others: max response, negative = inhibition, usual class: inhibitors. 310,000 tested, 3.5% active. AID 1490; active = well fitted inhibition curve with a large enough effect; inconclusive = small, poorly fitted or top-dose-only effect, or another doubt; inactive = no such curve, though single readings can be large or run the other way;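 note: the enzyme is Sfp with the accession as filed and its product quenches rhodamine fluorescence; potency is the fitted concentration of half-maximal effect; 0% = enzyme reaction without inhibitor and -100% = no enzyme wells; top concentration of the series not given in the record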
#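 Reaction rates are the 30-min fluorescence difference (ex 525, em 598 nm) in wells containing 15 nM Sfp, 5 uM rhodamine-CoA and 12.5 uM BHQ-2-YbbR at pH 7.6 with 10 mM MgCl2.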
# Menin MLL FP FL – menin-MLL binding inhibition, fluorescein peptide; Fluorescence polarization, fluorescein-MLL peptide displacement from menin; FP activity change, % at 61.4 µM; 290,000 tested, under 10 active; inconclusive = falling polarisation curve, or a change in total fluorescence; inactive = total fluorescence flat and polarisation flat or rising; no compound was filed as active; the % refers to the polarisation; negative = inhibition;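 note: % of control where 0% means no effect; inhibitors lower the polarisation; unlabelled MLL peptide was the positive control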
# Numbers without * were called inactive; ? = inconclusive; . = no result given; & = joins results of further samples; [ ] = dose if it differs, or a comment.
Molecule	Menin MLL FP FL	TRPML1 agonist	Sfp PPTase inh	TRPV1 potentiator	TRPML1 blocker	PINK1 modulator	ClpP mod
N/C(=N\OC(=O)c1cc(-c2ccccc2)nc2ccccc12)c1cccnc1	4.4	0.3	-1%	4	7	?	?
COc1cc2c(cc1OC)C(c1ccc(-c3cc(Cl)ccc3Cl)o1)=NCC2	15	3.3	?	13	19	1.7%	-2.8%
O=C(CN(c1ccc(Cl)cc1)S(=O)(=O)c1ccc(Cl)c([N+](=O)[O-])c1)NCCc1ccccc1	-2.6	-0.5	6%	0	4	1.0%	-0.6%
O=C(COc1ccccc1)N1CCN(c2nnc(-c3ccccc3)c3ccccc23)CC1	1.9	1.2	3%	10	30	8.5%[38.3 µM]	-3.8%
CCCn1nc(C(=O)N2CCc3ccccc3C2)c2ccccc2c1=O	-0.5	2.2	5%	-16	-19	-3.5%	-2.7%
Cc1c(C(C)C)c(=O)n(-c2ccc(S(=O)(=O)N3CCOCC3)cc2)n1C	-0.1	0.8	4%	29	14	-0.8%	.
CCOc1ccccc1C(=O)NCCC(=O)O	-3.2	-0.4	22%	7	0	2.0%	-0.7%
O=C(Nc1ccc(NC(=O)C2CC2)nc1)c1cccc(F)c1	1.1	-0.1	1%	-5	-12	1.0%	0.8%
COc1ccc(NC(=O)Nc2ccc(F)c(F)c2)c(OC)c1	-3.5	-0.1	8%	3	19	0.4%	.
COc1ccc(CNC(=O)CCn2c(=O)c3cccn3c3ccc(F)cc32)cc1	.	1.0	10%	-6	-9	-1.1%	-18%
Nc1nnc(SCC(=O)OCC(=O)NC2CCCCC2)s1	-1.4	0.7	6%	-5	52	1.2%	-0.2%
CCOCCCNC(=S)Nc1ccc(S(N)(=O)=O)cc1	3.1	0.7	0%	1	7	-0.1%	0.5%
COCC(C)NC(=O)c1ccc(N(C)C)cc1 (stereo not given)	0.6	0.6	16%	-13	-12	-0.9%	-0.8%
CCN(CC)C(=O)c1sc(NC(=O)c2ccc(Br)o2)c(C(=O)OC)c1C	0.3	0.4	-10%	-4	57	-1.7%	-2.3%
COc1ccc(-c2cc(C(F)(F)F)n3nc(C(=O)Nc4sc5c(c4C(=O)OC(C)C)CCCC5)cc3n2)cc1OC	.	-0.6	.	.	7	10%	-0.6%
CSc1ccc(C(=O)C2CCCN(C(=O)c3nonc3C)C2)cc1 (stereo not given)	0.5	1.4	-7%	-16	7	0.4%	-2.3%
c1cnc(N2CCN(Cc3c[nH]c4ccccc34)CC2)nc1	2.7	-1.0	9%	2	-12	-2.6%	-1.2%
CCOC(=O)Cn1c(=O)n(-c2ccccc2OC)c2nc(-c3ccccc3F)nc(C(N)=O)c21	.	2.2	.	.	7	1.7%	-6.2%
COc1ccc(C(C)(NC(C)=O)c2nc(-c3ccc(S(C)(=O)=O)cc3)cs2)cc1 (stereo not given)	.	-0.4	.	.	.	-0.7%	-2.2%
Cc1cc(SCC(=O)c2ccc(Cl)cc2)nc(=O)[nH]1	14	-0.1	?	-17	-15	0.5%	0.0%
COc1ccc(CCNC(=O)CSc2nc3[nH]ncc3c(=O)n2-c2ccc(C)c(Cl)c2)cc1OC	?	0.9	18%	2	0	0.9%	0.2%
COc1ccc(/C=C2\SC(=S)N(CCCC(=O)Nc3cccc(C(=O)O)c3)C2=O)cc1OC	.	0.0	6%	-23	7	0.3%	3.3%
O=C(C1CC1)N1CCc2cc(S(=O)(=O)N(CCO)Cc3ccccc3)ccc21	0.2	-0.9	13%	-3	9	0.1%	-0.3%
CCCCN(C=O)c1c(CC)nc2c(OCc3ccc(C(F)(F)F)cc3)cccn12	.	0.1	.	.	.	1.2%	1.5%
COc1ccc(N2CC(C(=O)Nc3ccc(F)cc3F)CC2=O)cc1 (stereo not given)	6.2	-1.0	5%	-10	37	-2.2%	-0.8%
CCc1cccc(NC(=O)CNS(=O)(=O)c2ccc3nc(C)sc3c2)c1	.	0.3	.	.	-11	-0.2%	-0.5%
COc1ccc(NS(=O)(=O)c2cccc(NC(=O)CCC(=O)c3ccc(Cl)cc3)c2)cc1	6.9	1.8	16%	7	1	-2.2%	-1.8%
CN(CC(=O)Nc1cccc(F)c1)C(=O)CCNC(=O)c1ccco1	.	0.1	.	4	-4	-2.7%	.
COc1ccc(Oc2nc(C(F)(F)F)nc3ccccc23)cc1	-0.8	2.8	?	4	28	3.3%	0.3%
Nc1cccc(NC(=O)CCC(=O)NCc2ccco2)c1	-5.5	0.0	6%	1	-11	0.5%	0.0%

# In the list so far, 2 have a COOH group.
Molecule	Menin MLL FP FL	TRPML1 agonist	Sfp PPTase inh	TRPV1 potentiator	TRPML1 blocker	PINK1 modulator	ClpP mod
CCOc1ccccc1C(=O)NCCC(=O)O	-3.2	-0.4	22%	7	0	2.0%	-0.7%
COc1ccc(/C=C2\SC(=S)N(CCCC(=O)Nc3cccc(C(=O)O)c3)C2=O)cc1OC	.	0.0	6%	-23	7	0.3%	3.3%

# The results go on:
Molecule	Menin MLL FP FL	TRPML1 agonist	Sfp PPTase inh	TRPV1 potentiator	TRPML1 blocker	PINK1 modulator	ClpP mod
Oc1ccccc1N1CCN(C(=S)NCCc2ccccc2)CC1	-1.7	0.2	45µM*	18	11	1.2%	-0.7%
CCS(=O)(=O)N1N=C(c2cccc(NS(C)(=O)=O)c2)CC1c1cccs1 (stereo not given)	.	0.0	23%	13	-16	10%	-2.3%
COC(=O)[C@H](C)NC(=O)Nc1cccc(C(F)(F)F)c1	-2.1	-0.6	5%	12	-2	0.3%	-1.0%
O=C(Nc1cccc(-c2nc3ccccc3o2)c1)c1cccc(Br)c1	.	-0.7	.	.	10	0.3%	122%
Cc1cc(C)c(NS(=O)(=O)c2ccccc2)c(C)c1NS(=O)(=O)c1ccccc1	.	2.2	.	.	-2	-1.9%	.
CCSc1nnc(NC(=O)CCNS(=O)(=O)c2ccccc2F)s1	-9.1	0.2	11%	6	-2	-0.9%	.
COc1cccc(Nc2sc(C(=O)c3ccc(F)cc3)c(N)c2C(=O)NCc2ccc(Cl)cc2)c1	.	1.2	.	.	-3	1.5%	0.0%
CCCCOc1ccc(CNC(=O)c2cnc3sc(N4CCC(C)CC4)nn3c2=O)cc1	.	-0.6	.	.	-4	4.2%	-4.5%
CC1CCC(NC(=O)CNC(=O)c2cccs2)CC1 (stereo not given)	.	-0.2	19%	2	30	-1.0%	-0.4%
Cc1nc(-c2ccc(S(=O)(=O)N3CCN(c4ccccc4)CC3)cc2)co1	-3.5	1.7	13%	-7	7	2.7%	1.7%
COc1c(C(=O)Nc2ccc(Br)cn2)ccc2ccccc12	-3.0	0.7	0%	10	14	4.8%	-17%
CC1CCN(C(c2ccc(F)cc2)c2sc3nc(-c4ccco4)nn3c2O)CC1 (stereo not given)	.	2.7	.	.	25	3.2%	0.3%
Cc1ccc(C)c(N(CC(=O)NN=C2CCN(C)CC2)S(=O)(=O)c2ccccc2)c1	-0.6	0.3	6%	-6	29	-1.1%	-1.9%
CN(CC(=O)Nc1ccc(Cl)cc1)C(=O)CNC(=O)c1cccs1	.	-1.5	.	-3	-14	0.1%	-0.7%
O=C(Cc1ccc(Cl)cc1)Nc1ccc(C(=O)N2CCCCC2)cc1	.	2.5	23%	-18	-6	3.3%	0.7%
O=Cc1ccc(-c2ccc(F)cc2)o1	-0.3	0.0	9%	-15	13	3.9%	?
COc1ccccc1OP(=O)(O)Oc1ccccc1OC	-2.2	-0.6	0%	-6	1	0.1%	.
COC(=O)/N=C(/Cc1ccc(OC)cc1)c1ccc(OC)cc1	-0.9	2.5	1%	-1	4	-1.3%	.
CCc1cccc(C)c1NC(=O)CSc1nc2ccncc2[nH]1	-0.9	-0.5&0.6	10%	4	1&-12	10%&4.0%	0.0%&-1.8%
Cc1cc(-c2nc(C)c(-c3nnc(SCC(=O)Nc4ccc(Cl)cc4)n3C)s2)no1	4.7	-0.9	9%	22	4	15%	.
NC(=O)CSc1nnc(-c2ccncc2)o1	5.5	4.2	20%	-6	-1	1.0%	-15%
COC(=O)c1cc(=O)c2c([N+](=O)[O-])ccc(OC)c2o1	3.5	-0.4	7%	5	5	-1.2%	1.5%
COc1ccc(Cc2c(O)nc[nH]c2=O)cc1	-0.4	-0.3	8%	-1	-4	4.8%[38.3 µM]	-1.7%
COCCN(Cc1ccccc1)C(=O)c1c(C)nn(-c2ccccc2)c1C	0.2	-0.5	0%	?	4	1.7%	.
CCN(c1ccc(OC)cc1)S(=O)(=O)c1ccc2c(c1)NC(=O)CS2	.	-0.9	3%	-8	10	-1.9%	-3.2%
C[C@H]1C(=O)N(C)CCN1C(=O)c1ccccc1OC1CCN(S(C)(=O)=O)CC1	0.6	-0.2	6%	4	8	3.5%	2.0%
CCCCCCCC(=O)OCC(=O)[C@@]1(O)CC[C@H]2[C@@H]3CCC4=CC(=O)CC[C@]4(C)[C@H]3[C@@H](O)C[C@@]21C	-2.5	-0.6	26%	10	2	5.0%	0.1%
Cc1cc(C(=O)OCC(=O)N2C(C)CCCC2C)c(C)o1 (stereo not given)	0.4	0.5	4%	-5	-10	1.0%	-0.8%
CCOc1ccccc1CNC(=O)CCCc1cn(C)c2ccccc12	1.4	-1.1	8%	6	-13	-0.5%	-10%
COc1ccccc1CNC(=O)/C(C#N)=C/c1ccc(OC)c(OC)c1OC	-6.7	.	-10%	-8	.	0.0%	-0.4%
CC(C)c1ccc(CC(=O)N2CCC2(C)C(=O)Nc2ccc3c(c2)OCO3)cc1 (stereo not given)	.	-1.1	.	.	.	2.6%	-0.8%
Cc1ccccc1N1C(=O)C2C3C=CC(C2C1=O)N(C)C3=O (stereo not given)	-1.0	-0.9	8%	-4	3	-0.9%	-1.2%
Cc1ccc(Cn2cnc3sc4c(c3c2=O)CCC4)c(C)c1	4.7	1.1	-15%	?	13	9.9%	0.9%
CCN1C(=O)c2ccccc2S(=O)(=O)c2ccc(C(=O)NCc3ccccc3OC)cc21	.	0.8	.	.	29	2.6%	-10%
